# Screening data (PubChem BioAssay)
# N370S GC – inhibitors or activators of N370S glucocerebrosidase for Gaucher disease | P04062 | N370S GC spleen homogenate, 4MU-glucoside fluorescence | Potency, µM (doses to about 59.4 µM), for the others: at the top dose activity change, negative = inhibition, hits mostly inhibitors | hit rate 0.092% among 330,000;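 note: 0% = full enzyme activity and -100% = no enzyme basal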
# FEN1 inhibitor – inhibitors of human flap endonuclease 1 | hit rate 0.35% among 390,000 | Recombinant FEN1 flap cleavage, fluorescence, 15 min | P39748 | Potency, µM (series often up to 114 µM), inactives show at the top dose activity change, negative = inhibition, usual class: inhibitors; note: nearly all actives have a fitted effect of over 65% in size
# Target sequence (P39748 whole entry, looked up): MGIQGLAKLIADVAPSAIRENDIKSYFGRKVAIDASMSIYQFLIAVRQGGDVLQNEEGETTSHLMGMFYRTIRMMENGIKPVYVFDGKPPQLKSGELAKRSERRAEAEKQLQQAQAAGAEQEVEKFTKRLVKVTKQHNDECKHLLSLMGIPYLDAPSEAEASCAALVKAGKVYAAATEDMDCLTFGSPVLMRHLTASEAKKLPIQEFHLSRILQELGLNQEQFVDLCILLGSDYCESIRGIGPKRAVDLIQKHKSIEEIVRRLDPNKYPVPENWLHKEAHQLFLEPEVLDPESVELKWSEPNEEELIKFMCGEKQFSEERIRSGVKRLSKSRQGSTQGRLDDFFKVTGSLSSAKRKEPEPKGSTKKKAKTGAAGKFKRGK
#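 Potency values derive from four-parameter Hill fits of normalized qHTS data. The reaction used 10 nM FEN1 preincubated 15 min at room temperature with compound, then 50 nM DNA substrate, read at 0 and 15 min.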
# * = called active by the depositor; ? = inconclusive; nt = not tested or not shown; & = joins results of further samples; [ ] = dose if it differs, or a comment. Calls come from the whole dose curve; as a rule, active = well fitted curve in the direction sought with a large enough effect; inconclusive = small, poorly fitted or top-dose-only effect, or another doubt; inactive = no such curve, though single readings can be large; an effect the other way counts as inactive or inconclusive. Unless noted, % is set by controls: 0 for no effect and ±100 for the full control effect; potency is the fitted concentration of half-maximal effect.
item	smiles	N370S GC	FEN1 inhibitor
1	O=C(COc1ncnc2ccccc12)Nc1ccc(Cl)c([N+](=O)[O-])c1	-17%	-11%
2	O=C(O)C1CC=CCC1C(=O)NNc1ccccc1 (stereo not given)	6%	0%
3	COC(=O)/C(=C/c1ccco1)NC(=O)c1ccc(Br)o1	1%	-1%
4	Cc1cc(C(F)(F)F)c2c(N)c(C(=O)NC3CC3)sc2n1	-8%	8%
5	COc1ccc(NC(=O)Cn2c3ccccc3c3nc4n(c(=O)c32)CCS4)cc1	-5%	5%
6	Cc1cc(C)nc(SC2c3cccc4cccc(c34)C2NS(=O)(=O)c2ccccc2)n1 (stereo not given)	-9%	-6%
7	Nc1cc2c(cc1C(=O)c1cccc(Br)c1)OCCO2	-8%	-3%
8	COc1cc(NC(=O)c2cc([N+](=O)[O-])ccc2NC(=O)CN2CCN(c3ccccn3)CC2)cc(OC)c1	-8%	1%
9	Cc1ccc(S(=O)(=O)Nc2nncs2)cc1	-3%	-16%
10	CC(=O)Nc1cccc(C(=O)Nc2cccnc2)c1	-1%	6%
11	C=CCSc1ncc(-c2ccccc2)cn1	10%	10%
12	COCCn1c(CNC(=O)c2cccc(N(C)C)c2)nc2cccnc21	nt	-1%
13	Nc1nc(-c2ccco2)nn1C(=O)c1cccnc1	1%	-5%
14	CC1=CC(=O)C2=C(C)CCC3C(C)C(=O)OC3C12 (stereo not given)	-8%	nt
15	COc1ccc(CNCCSc2nnnn2C)cc1OC	2%	4%
16	COc1ccc(NS(=O)(=O)c2ccc(C)c(C(=O)N(C)Cc3ccc(C)cc3)c2)cc1	2%	3%
17	COc1ccc(-n2nc(C(=O)NCC(=O)N3CCN(c4ccccc4)CC3)c3ccccc3c2=O)cc1OC	-11%	12%
18	O=C(NCc1ccccc1Cl)c1cc(=O)[nH]c2ccc(S(=O)(=O)N3CCCCC3)cc12	nt	21%
19	O=S(=O)(Nc1ccc(-c2nc3cccnc3s2)cc1)c1ccccc1F	?	7%
20	CCOC(=O)c1c(NC(=O)c2cccs2)sc2c1CCN(C(=O)OCC)C2	?	-17%
21	Cc1ccc(Cn2nnc3c(=O)n(CC(=O)NCc4ccccc4)cnc32)cc1	0%	10%
22	O=C(NS(=O)(=O)c1ccc(Cl)cc1)c1ccccc1	18%	13%
23	COc1cccc(/C=C/C(=O)c2cccc([N+](=O)[O-])c2)c1OC	11%	-8%
24	CCC1CN2CCC1CC2[C@@H](NC(=S)Nc1cc(C(F)(F)F)cc(C(F)(F)F)c1)c1cccc2ccc(OC)cc12 (stereo not given in full)	-12%	nt
25	Cc1cc(NC(=O)CSc2nc3c(cc2C#N)CCC3)no1	0%	-13%
26	CC(C)(ONC(=O)Nc1ccccc1Cl)C(=O)O	7%	-2%
27	CC1CC(C)CN(CCCNC(=O)c2cc3c(s2)-c2ccccc2OC3)C1 (stereo not given)	?	-17%
28	CCOC(=O)c1ccc2[nH]c3c(c2c1)CCCC3	9%	-2%
29	O=C(O)CC(NC(=O)c1ccccc1NC(=O)c1ccccc1)C(=O)O (stereo not given)	-6%	-5%
30	CC1=C(C(=O)NCCc2ccc(Cl)cc2)C2(CCCCC2)OC1=O	nt	-6%
31	COc1ccc(C2CC(c3ccc(Br)cc3)Nc3nc(N)nn32)cc1 (stereo not given)	-2%	4%
32	CN1C(=O)C(O)(CC(=O)c2ccc(F)cc2)c2cc(Br)ccc21 (stereo not given)	-22%	7%
33	CCN1C(=O)CS/C1=N\S(=O)(=O)c1ccc(C)cc1	5%	-5%
34	CCCNC(=O)CCn1nc(-c2ccc(C)cc2)c2ccccc2c1=O	-7%	0%&-12%
35	Cc1ccc(NC(=O)c2c(C(=O)Nc3ccccc3)sc3nc(C)cc(=O)n23)cc1	-4%	2%&2%
36	CC(C)Cn1c(N)c(C(=O)CSc2n[nH]c(N)n2)c(=O)n(C)c1=O	nt	-4%
37	COc1ccc(C(=O)OCC(=O)NCCCc2ccccc2)cc1[N+](=O)[O-]	-3%	-2%
38	COC(=O)c1ccc(CSc2nnc(N)s2)o1	-7%	-5%
39	N#Cc1c(SCC(=O)Nc2ccc(Cl)cc2Cl)sc2c(O)cc(=O)[nH]c12	8%	-3%
40	COC(=O)C1=C(C(=O)OC)[C@@H]2Nc3ccccc3[C@@]23C[C@@H](C(=O)OC)N(C(=O)c2ccco2)C3=N1	-2%[12.8 µM]	-6%
41	Cc1cc(C)c(NC(=S)NCC2CCN(C(C)c3ccccc3)C2)c(C)c1 (stereo not given)	-8%	-11%
42	OB(O)c1ccc(Br)cc1	-7%	-1%
43	NC(=O)CSc1nnc2n(-c3ccccc3)c(=O)c3c4c(sc3n12)CCCCC4	5%	2%
44	CC(=O)c1ccc(NC(=O)C(C)NCc2ccccc2Cl)cc1 (stereo not given)	-6%	5%
45	CCOC(=O)C1CCN(C(=O)c2cn(C)c(=O)c3cc(OC)c(OC)cc23)CC1	1%	1%
46	Cc1cc(C)n(-c2nc(C(F)(F)F)nc3ccccc23)n1	20%	-4%
47	COc1cc(/C=C/C(=O)OCC(=O)NCCC2=CCCCC2)cc(OC)c1OC	nt	-5%
48	CCOc1ccccc1C(=O)Nc1nccs1	-12%	-1%
49	COc1ccccc1CNC(=O)c1cc(-c2ccccc2C)n(CC2CC(c3cccc([N+](=O)[O-])c3)=NO2)n1 (stereo not given)	-10%	-17%
50	c1ncc(-c2ccc3c(c2)OCO3)c(NCCc2cnc[nH]2)n1	3%	nt
51	CCCc1cc(C(=O)Nc2cc(C)ccc2O)no1	3%	11%
52	CCOc1ccc(NS(=O)(=O)c2ccc(C(=O)N3CC(C)OC(C)C3)cc2)cc1 (stereo not given)	nt	5%
53	CCN1CCN(c2cc(C)c3cc(NC(=O)c4cccc(OC)c4)ccc3n2)CC1	-27%	-30%
54	COCC(=O)Nc1ncc(S(=O)(=O)c2ccc([N+](=O)[O-])cc2)s1	-6%	-2%
55	O=S(=O)(/N=C(/Nc1ccccn1)c1ccccc1)c1ccc(F)cc1	-7%	-5%
56	CCOc1ccccc1N1CCN(S(=O)(=O)c2ccc3c4c(cccc24)C(=O)N3)CC1	-8%	?

# A draw from above in order of molecular weight, lowest first:
item	smiles	N370S GC	FEN1 inhibitor
48	CCOc1ccccc1C(=O)Nc1nccs1	-12%	-1%
51	CCCc1cc(C(=O)Nc2cc(C)ccc2O)no1	3%	11%
50	c1ncc(-c2ccc3c(c2)OCO3)c(NCCc2cnc[nH]2)n1	3%	nt
54	COCC(=O)Nc1ncc(S(=O)(=O)c2ccc([N+](=O)[O-])cc2)s1	-6%	-2%
52	CCOc1ccc(NS(=O)(=O)c2ccc(C(=O)N3CC(C)OC(C)C3)cc2)cc1 (stereo not given)	nt	5%
56	CCOc1ccccc1N1CCN(S(=O)(=O)c2ccc3c4c(cccc24)C(=O)N3)CC1	-8%	?
49	COc1ccccc1CNC(=O)c1cc(-c2ccccc2C)n(CC2CC(c3cccc([N+](=O)[O-])c3)=NO2)n1 (stereo not given)	-10%	-17%

# (cont.)
item	smiles	N370S GC	FEN1 inhibitor
57	O=C(Nc1ccc(Cl)c([N+](=O)[O-])c1)c1cnccn1	0%	-11%
58	Cc1ccc(NC(=O)c2cccc(NC(=O)N3CCSc4ncccc43)c2)cc1Cl	nt	3%
59	Cc1cccc(OCc2nnc(SCC(=O)Nc3cccc(C(=O)N4CCOCC4)c3)n2C)c1C	10%	-4%
60	Cc1nn(-c2ccccc2Cl)c(Cl)c1/C=C(\C#N)C(N)=O	0%	2%
61	O=C(NC1CCCCCC1)c1cccnc1Sc1ccc(Cl)cc1	4%	0%
62	Cc1ccc(C)c(NC(=O)C(c2ccccc2)N2CCN(CC(=O)N3CCOCC3)CC2)c1 (stereo not given)	nt	13%
63	CCOC(=O)c1nnn(-c2nonc2N)c1CSc1ccccc1	-2%	-9%
64	CC(Sc1nccn1C)C(=O)NC1(C#N)CCCCC1 (stereo not given)	nt	-14%
65	CC(C)(C)c1ccc(C(=O)NCCC(=O)N2CCN(c3ncccn3)CC2)cc1	5%	17%
66	CN(c1ccc(C(=O)N2CCOCC2)cc1)S(=O)(=O)c1cccs1	3%	-14%
67	COc1ccc([C@H]2CC(=O)C=C(c3ccc4c(c3)sc3ccccc34)C2)cc1	nt	-5%
68	COc1ccc(NC(=S)N2CCN(c3ccccn3)CC2)cc1	0%	4%
69	Cc1ccc(C)c(OCC(=O)Nc2cccc(C(=O)O)c2)c1C	1%	-17%
70	COc1ccc(N2CCN(Cc3nc(-c4ccccc4)no3)CC2)cc1	1%	-5%
71	Cc1ccc(-c2cnc(NCc3cc4c(cc3[N+](=O)[O-])OCO4)n2C)cc1C	2%	5%
72	CCOCc1c(C(=O)NC2CCCCCC2)oc2ccccc12	-7%	-7%

# Brought forward from above: 2 entries, followed by the next part.
item	smiles	N370S GC	FEN1 inhibitor
71	Cc1ccc(-c2cnc(NCc3cc4c(cc3[N+](=O)[O-])OCO4)n2C)cc1C	2%	5%
72	CCOCc1c(C(=O)NC2CCCCCC2)oc2ccccc12	-7%	-7%
73	COC(CN1C(=O)C(=O)/C(=C(/O)c2ccccc2)C1c1ccccn1)OC (stereo not given)	0%	-2%
74	O=[N+]([O-])c1ccc(-c2n(-c3ccccn3)c3ccccc3[n+]2-c2ccccn2)cc1	-4%	-2%
75	CCCN=C1CC(C)(C)CC(=O)/C1=C(/O)CCC	-11%	-4%
76	COc1ccc(CSCCNC(=S)Nc2ccccc2)cc1Cl	-2%	-26%
77	COc1ccc(OCC(=O)NC(=S)Nc2ccc3c4c(cccc24)CC3)cc1	-3%	-7%
78	CCOc1ccc(CC2c3cc(OCC)c(OCC)cc3CCN2C(=O)CN2CCN(C)CC2)cc1OCC (stereo not given)	-1%	-3%
79	c1ccc(C(c2nnnn2Cc2cccs2)N2CCN(C3CCCC3)CC2)cc1 (stereo not given)	-2%	-11%
80	Cc1ccc(NC(=O)c2cc(NC(=O)C3CC=CCC3C(=O)O)ccc2N2CCOCC2)cc1Cl (stereo not given)	-6%	-7%
81	CCOC(=O)C1CCCN(C(=O)c2cc3cc(Br)ccc3oc2=O)C1 (stereo not given)	10%	12%
82	COc1ccc(NC(=O)C2CCCN2C(=O)OCc2ccccc2)c(OC)c1 (stereo not given)	6%	3%
83	COc1ccc(N=C2S/C(=C\c3cccs3)C(=O)N2CC(C)C)cc1	6%	-3%
84	COc1ccccc1NC(=O)CN1CCN(c2ccccc2)CC1	4%	12%
85	CCOC(=O)c1[nH]c(C)c(CN(Cc2ccco2)C(=O)C(F)(F)F)c1C	3%	-5%
86	COc1ccc(C2CC(c3cccs3)=NN2C(=O)CSc2nc3ccccc3s2)cc1 (stereo not given)	14%	-8%
87	COc1ccccc1NC(=O)Cc1nc(CCl)cs1	4%	5%
88	[O-][N+]12CCN(CC1)c1ccccc12	8%	-1%
89	Cc1oncc1C(=O)Nc1cccc(C#N)c1	4%	-1%
90	CCCCNC(=O)CC1N=C2c3ccccc3N=C(SCC(=O)Nc3cccc(C)c3)N2C1=O (stereo not given)	4%	-3%
91	COC(=O)C(NC(=O)c1ccco1)(Nc1ccc(Br)cn1)C(F)(F)F (stereo not given)	-5%	-2%
92	O=S(=O)(c1ccccc1F)N1CCN(CCOc2ccccc2)CC1	nt	-1%
93	CCn1c(SCC(=O)c2ccc3ccccc3c2)nnc1-c1cccs1	5%	-7%
94	O=C(NCC1CCCCC1)c1cccnc1Cl	-5%	0%
95	Cc1ccccc1C(=O)N/N=C/c1ccsc1C	11%	-4%
96	C=C[C@](C)(O)CCC1C(=C)CC(OC(C)=O)C2C(C)(C)CCCC12C (stereo not given in full)	-18%	nt
97	CCCCCn1c(CNC(=O)COC)nc2ccccc21	5%	3%
98	C[C@@H]1CN([C@@H](C)CO)C(=O)c2cc(NC(=O)Nc3ccc4c(c3)OCO4)ccc2O[C@H]1CN(C)S(=O)(=O)c1ccc(F)cc1	nt	3%
99	c1ccc(CN(Cc2ccco2)C(c2ccncc2)c2nnnn2C2CCCC2)cc1 (stereo not given)	1%	?
100	O=C(Nc1nc(-c2ccc(-c3ccccc3)cc2)cs1)C1CCCO1 (stereo not given)	1%	1%
101	O=C(COC(=O)c1cccnc1Cl)NCCCc1ccccc1	nt	-2%
102	Cc1ccc(-c2cc(C(=O)OCC(=O)NC3CC3)c3ccccc3n2)cc1	nt	2%
103	CC(C)CC(NC(=O)OC(C)(C)C)c1cn([C@@H](Cc2ccc(O)cc2)C(=O)N2CCN(C(=O)OC(C)(C)C)CC2)nn1 (stereo not given in full)	?	-5%
104	O=S(=O)(NC1CCCC1)c1ccc(S(=O)(=O)N2CCN(c3ccccc3)CC2)cc1	1%	7%
105	O=C(NC1CCCC1)c1ccc(COCC(F)(F)F)o1	4%	-6%
106	CNC(=O)COC(=O)/C=C/c1cn(-c2ccccc2)nc1-c1ccc(C)o1	?	-15%
107	COc1ccc(-c2cc3cc(OC)c(OC)cc3c(C)n2)cc1C	10%	-22%
108	CCCn1cc(S(=O)(=O)c2cc(C)ccc2C)c(=O)c2cc(F)c(N3CCOCC3)cc21	nt	3%
109	Cc1ccc2nc(NC(=O)CSc3ncnc4c3oc3ccccc34)sc2c1	7%	16%
110	O=C(NCC(O)c1ccccc1)c1cccc(S(=O)(=O)N2CCOCC2)c1 (stereo not given)	-7%	-1%
111	CN1CCN(C(=S)Nc2ccc(Oc3ccccc3)cc2)CC1	?	-5%
112	CC(=O)Nc1cc(NC(=O)CCCC(=O)O)ccc1Cl	2%[2.35 µM]	-7%
113	COC(=O)COn1c(SCC(=O)OC)nc2ccccc2c1=O	2%	1%

# This is a subset; most or all hits stand in other tables.
